# Screening data deposited in PubChem by several laboratories.
# Sa RN4220 lethal: kills Staphylococcus aureus RN4220; S. aureus RN4220 growth, OD600, 16 h; inhibition, % (test concentration not listed); hit rate 0.33% among 330,000; AID 1259311;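 active = z-score of -3 or lower and OD600 up to 0.18 on both plates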;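 note: plate controls were untreated cells for no effect and reference antibiotic for full effect; stock transfer was 100 nL into about 80 µL; one replicate is shown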
# Bead autofluor: flagged as autofluorescent in microsphere protease counterscreen; compound autofluorescence counterscreen, microsphere flow cytometry; active compounds read high; fluorescence intensity (test concentration not listed); hit rate 3.1% among 360,000; AID 624483;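 active = at least 3 SD above the mean of all compounds, about 16000 in these data; inconclusive = too few beads counted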;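 note: 100 nL of 1 mM stock went into each well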
# PrP 5UTR inh: inhibition of PrP 5' UTR reporter expression; cell-based PrP 5' UTR mRNA reporter, plate reader; inhibition, % (test concentration not listed); hit rate 0.35% among 340,000;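 active = every replicate at 50% or more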;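 note: 0 = median of the neutral control wells; tested in H4 reporter cells; numbers are from one replicate; inactives centre near -14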
# BJeLR lethal: BJeLR cell viability loss | BJeLR (HRASV12) viability, CellTiter-Glo ATP luminescence, 48 h; reference of the scale not given here | inhibition, % (concentration not given with the values) | hit rate 0.17% among 300,000 | AID 1554;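 active = replicate mean above 50%; inconclusive = above 50% but judged a plate artefact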;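 note: 50 nL library stock added to about 25 µL; numbers are from one replicate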
# Mtb hypoxia rep: reduces hypoxia-regulated biosensor signal in M. tuberculosis; M. tuberculosis hypoxia-regulated fluorescent reporter, fluorescence; fluorescence inhibition, % (concentration not given with the values); hit rate 0.1% among 300,000; AID 1159583;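 active = 35 to 45% if threefold the growth effect, above 45% if 1.5-fold the growth effect; inactive = the rest, general growth blockers included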;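 note: wells of about 50 µL received 100 nL stock; 0% = vehicle wells and 100% = reference inhibitor wells; whole bacteria with a GFP reporter of the hypoxia response; strong numbers were not always called active; many hits fall short of the cut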
# ugtP null kill: compounds lethal to S. aureus RN4220 ugtP deletion mutant | hit rate 0.54% among 330,000 | OD600 growth, 16 h; some inactives read as strong as hits | AID 1259309 | growth inhibition, % (no concentration beside the values);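 active = z-score under -3 and OD600 up to 0.15 on both plates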;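 note: plate controls were untreated wells for no effect and antibiotic for full effect; wells of about 80 µL received 100 nL stock; the first replicate is given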
# Mtb hypoxia rep growth: also measured in Mtb hypoxia rep; calls as there; growth inhibition, %; measured here: M. tuberculosis growth (absorbance);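 0% = vehicle and 100% = reference antibiotic; read after six days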
# Numbers without * were called inactive; ? = inconclusive; . = not tested or not shown.
SMILES,Sa RN4220 lethal,Bead autofluor,PrP 5UTR inh,BJeLR lethal,Mtb hypoxia rep,Mtb hypoxia rep growth,ugtP null kill
Cc1c(C(=O)N2CCCCC2C)sc2ncnc(N3CCc4ccccc4C3)c12 (stereo not drawn),-10,2007,-4,4,-2,-6,-16
C=C(C)Cn1c(=S)[nH]c2ccccc2c1=O,6.9,4828,-16,-17,4,3,-3
CC(C)Cn1c(N)c(C(=O)COC(=O)c2cccnc2Cl)c(=O)n(C)c1=O,8.5,4229,-3,8,2,0,-2
CC(=O)c1ccc(OCCCC(=O)Nc2ccc(C)c(S(=O)(=O)N(C)C)c2)cc1,6.0,9727,-4,5,1,11,-4
CSc1cccc(NC(=S)N(CCC(C)C)C(C)c2ccncc2)c1 (stereo not drawn),5.8,3875,-17,13,3,11,24
O=C(CNS(=O)(=O)c1ccccc1)N/N=C/c1ccccc1[N+](=O)[O-],.,4147,-9,-3,.,.,.
O=C(COC(=O)c1cc(=O)[nH]c(=O)[nH]1)Nc1cccc(Cl)c1,-0.9,3658,-14,.,3,11,-4
Cc1ccc(CC2(c3ccccc3)NC(=O)NC2=O)cc1 (stereo not drawn),-2.3,3662,5,.,-4,1,-11
CCCCn1c(N)c(N(CCOC)C(=O)c2ccc(-c3ccc([N+](=O)[O-])cc3)o2)c(=O)[nH]c1=O,.,5180,-1,-1,.,.,.
COc1ccc(CNC(=O)Cn2ncn3cccc3c2=O)cc1,8.6,.,.,1,-12,-2,-4
Cc1c2c(nc3ccccc13)CCC(C(C)(C)C)C2 (stereo not drawn),7.8,2571,-32,2,11,5,4
Cn1nc(C(C)(C)C)cc1C(=O)NNC(=O)c1ccc(C(F)(F)F)cc1,2.8,4037,-16,2,-7,-1,-1
COc1cccc(/C=C/C(=O)OCC(=O)NCCCc2ccccc2)c1OC,1.8,3979,-30,.,20,3,4
N#Cc1c(N)n(-c2ccccc2)c(=O)c2cc([N+](=O)[O-])ccc12,3.2,4018,-13,0,-2,-1,5
CC(C)=CCOc1c2occc2cc2ccc(=O)oc12,3.1,4044,-3,-7,8,1,1

# Some of the entries above in a different format:
SMILES | Sa RN4220 lethal | Bead autofluor | PrP 5UTR inh | BJeLR lethal | Mtb hypoxia rep | Mtb hypoxia rep growth | ugtP null kill
Cc1c(C(=O)N2CCCCC2C)sc2ncnc(N3CCc4ccccc4C3)c12 (stereo not drawn) | -10 | 2007 | -4 | 4 | -2 | -6 | -16
C=C(C)Cn1c(=S)[nH]c2ccccc2c1=O | 6.9 | 4828 | -16 | -17 | 4 | 3 | -3
CC(C)Cn1c(N)c(C(=O)COC(=O)c2cccnc2Cl)c(=O)n(C)c1=O | 8.5 | 4229 | -3 | 8 | 2 | 0 | -2
CC(=O)c1ccc(OCCCC(=O)Nc2ccc(C)c(S(=O)(=O)N(C)C)c2)cc1 | 6.0 | 9727 | -4 | 5 | 1 | 11 | -4
CSc1cccc(NC(=S)N(CCC(C)C)C(C)c2ccncc2)c1 (stereo not drawn) | 5.8 | 3875 | -17 | 13 | 3 | 11 | 24
O=C(CNS(=O)(=O)c1ccccc1)N/N=C/c1ccccc1[N+](=O)[O-] | . | 4147 | -9 | -3 | . | . | .
O=C(COC(=O)c1cc(=O)[nH]c(=O)[nH]1)Nc1cccc(Cl)c1 | -0.9 | 3658 | -14 | . | 3 | 11 | -4
Cc1ccc(CC2(c3ccccc3)NC(=O)NC2=O)cc1 (stereo not drawn) | -2.3 | 3662 | 5 | . | -4 | 1 | -11
CCCCn1c(N)c(N(CCOC)C(=O)c2ccc(-c3ccc([N+](=O)[O-])cc3)o2)c(=O)[nH]c1=O | . | 5180 | -1 | -1 | . | . | .
COc1ccc(CNC(=O)Cn2ncn3cccc3c2=O)cc1 | 8.6 | . | . | 1 | -12 | -2 | -4
Cc1c2c(nc3ccccc13)CCC(C(C)(C)C)C2 (stereo not drawn) | 7.8 | 2571 | -32 | 2 | 11 | 5 | 4
Cn1nc(C(C)(C)C)cc1C(=O)NNC(=O)c1ccc(C(F)(F)F)cc1 | 2.8 | 4037 | -16 | 2 | -7 | -1 | -1
COc1cccc(/C=C/C(=O)OCC(=O)NCCCc2ccccc2)c1OC | 1.8 | 3979 | -30 | . | 20 | 3 | 4
N#Cc1c(N)n(-c2ccccc2)c(=O)c2cc([N+](=O)[O-])ccc12 | 3.2 | 4018 | -13 | 0 | -2 | -1 | 5
CC(C)=CCOc1c2occc2cc2ccc(=O)oc12 | 3.1 | 4044 | -3 | -7 | 8 | 1 | 1

# New compounds follow.
SMILES,Sa RN4220 lethal,Bead autofluor,PrP 5UTR inh,BJeLR lethal,Mtb hypoxia rep,Mtb hypoxia rep growth,ugtP null kill
CCN1CCN(S(=O)(=O)c2ccc(-c3cc(C)no3)s2)CC1,2.1,5064,-3,-9,10,7,6
Cc1ccc(Oc2nnc(-c3cccs3)c3ccccc23)cc1C,-4.3,2266,-17,3,5,7,40
O=C(CS(=O)(=O)c1ccccc1)Nc1nc2ccccc2s1,4.3,4240,-3,-3,8,4,11
O=C(CNC(=O)OCc1ccccc1)NC1(C(=O)O)CCCC1,0.8,3857,1,.,2,5,2
O=C(CCC(=O)OCc1ccc([N+](=O)[O-])cc1Cl)Nc1ccccc1,0.5,5386,-13,-15,-5,0,-1
O=C(Nc1cccc(C(F)(F)F)c1)c1cc(Br)cc2c1OCC2,1.0,5443,-9,-3,10,5,-4
CCOc1ccc(N2C(=O)CN=C2Nc2ccccc2F)cc1,-9.5,2507,-18,-8,10,7,-4
CC(=O)c1ccc(S(=O)(=O)N2CCNCC2)cc1,3.4,5138,-17,7,12,-3,7
CCC(=O)c1ccc(OCC(=O)OCC(=O)Nc2ccc(C)c(S(=O)(=O)N3CCCCC3)c2)cc1,3.9,8638,4,.,0,2,1
CCN(CC)CCN(C(=O)c1ccc(S(=O)(=O)N2CCOCC2)cc1)c1nc2cc3c(cc2s1)OCCO3,3.3,6455,-18,-6,-2,-4,14
Cc1ccccc1-n1c(C)cc(/C=N/NC(=O)c2ccc(CN3CCOCC3)cc2)c1C,.,16022,-3,-26,.,.,.
CCOc1ccc(OCc2ccc(C(=O)N3N=C(C(F)F)CC3(O)C(F)F)o2)cc1 (stereo not drawn),5.5,17666*,-13,-8,2,-5,-5
COc1cc(C(=O)NCc2ccc(S(N)(=O)=O)cc2)ccc1OCC(=O)N1CCOCC1,2.3,8732,-6,.,3,-6,2
COc1ccc(NC(=S)NCCN2CCC(C)CC2)cc1,.,4467,0,5,.,.,.
CCOC(=O)C1CCCN(C(=S)NC(=O)/C=C/c2ccc(F)cc2)C1 (stereo not drawn),1.4,4645,-16,9,4,2,4
O=C(COc1ccccc1F)NNC(=O)Cc1ccc(S(=O)(=O)N2CCOCC2)s1,.,?,-11,-1,.,.,.
O=C(c1cc(-c2ccncc2)nc2ccccc12)N1CCN(Cc2ccccc2)CC1,-0.5,2857,-17,.,9,8,10
COc1ccc(/C=N/n2cnc3c([nH]c4ccccc43)c2=O)cc1CO,.,4590,-1,0,.,.,.
CCOc1cccc2sc(N(CCN(C)C)C(=O)c3ccc4ccccc4c3)nc12,-2.4,5231,-20,-9,2,1,-10
Cc1cc(C)cc(Oc2nc(-c3ccccc3)cc(C)c2S(C)(=O)=O)c1,0.5,2719,-25,5,.,.,11
CN1CCC(=O)N([C@H](CO)c2ccccc2)CC1,.,3920,-18,1,.,.,.
COc1ccc(C2CCCCCN2C(=O)C2CCN(S(=O)(=O)c3cccc(C(C)=O)c3)CC2)cc1 (stereo not drawn),4.1,2944,-12,.,4,2,9
COc1cc2nc(C3CCC3)n(NC(=O)C(OC(C)=O)c3ccccc3)c(=O)c2cc1OC (stereo not drawn),-0.8,10989,-14,4,3,2,-5
CC1(C)Cc2c(cnn2-c2cccc(F)c2)C(NC(=O)c2cc[n+]([O-])cc2)C1 (stereo not drawn),5.3,5933,-4,6,3,2,6
COc1ccc(Cn2c(C(F)(F)F)ccc(C(N)=O)c2=O)cc1,0.5,4275,-20,6,17,13,6
Cc1ccc(C(=O)CSc2ccc(-c3ccccc3)nn2)cc1,11,9505,-19,0,5,3,-19
Oc1ccc(/C=N/N2CCCCC2)cc1O,.,4307,-13,0,.,.,.
CCN(CC)C(=O)COc1ccc(-c2nnc(Nc3ccc(OC)c(C(=O)NC)c3)c3ccccc23)cc1,2.7,3061,-20,3,1,7,-3
CC(=O)NC(=S)Nc1ccc(S(=O)(=O)Nc2nc(C)cc(C)n2)cc1,3.8,3309,2,5,2,-1,10
Cc1ccc(S(=O)(=O)N2CCCCC2)cc1NC(=O)C1CC(=O)N(c2ccc3c(c2)OCCO3)C1 (stereo not drawn),1.7,6283,-10,-3,-5,0,0
Cc1ccc(C(=O)O/N=C2\CCCc3ccccc32)cc1,.,16019,-34,-8,.,.,.
O=C(NNC(=O)c1sc2cccc(Cl)c2c1Cl)Nc1ccccc1,4.2,2220,-31,-3,.,.,-5
Cc1cc(NS(=O)(=O)N(C)C)ccc1C(C)C,3.6,4105,-24,4,.,.,-3
Cn1c(=O)[nH]c(=O)c2c1nc(Br)n2CC(O)COc1ccc(Cl)cc1 (stereo not drawn),-2.1,4303,1,-9,10,5,6
CCOC(=O)c1nc2ccccc2c(=O)n1-c1ccc(C)cc1C,5.1,2505,-11,4,8,8,29
Cn1nnc(C(O)CNCc2cccs2)n1 (stereo not drawn),2.5,9878,-6,0,-7,3,0
CCc1c(C)sc(NC(=S)Nc2cccnc2)c1C(=O)OC,1.6,4787,-14,6,8,5,0
Cc1cccc(NC(=O)CNC(=O)c2ccccc2Cl)n1,1.8,5752,-14,-8,8,0,3
O=C(NNC1=NS(=O)(=O)c2ccccc21)C1CC(=O)N(c2ccccc2)C1 (stereo not drawn),0.6,2344,-13,-3,-3,9,15
CCC(CNc1cc(OC)cc2cccnc12)NC1CCCCC1 (stereo not drawn),-0.4,2533,-6,7,15,12,-3
C/C(=N\Nc1nc(C)cc(-c2ccccc2)n1)c1ccc(C)o1,.,4262,-11,-7,.,.,.
CC(Oc1ccc(-c2ccccc2)cc1)C(=O)N/N=C/c1cccnc1 (stereo not drawn),.,6280,-12,5,.,.,.
O=C1c2cccc3cccc(c23)C(=O)N1CCCN1CCN(c2ccc(F)cc2)CC1,-0.4,3472,-74,1,-4,8,15
N#CC(=Cc1ccc(N2CCOCC2)o1)C(=O)NCCc1ccccc1,1.0,.,.,.,-9,10,5
CCC1(C)Cc2ccccc2/C(=C/C(=O)N2CCCCC2)N1 (stereo not drawn),.,3410,-9,-3,.,.,.
O=C(COC(=O)/C=C/c1cccc(Br)c1)NCCc1ccccc1,3.1,?,-15,3,2,7,1
CCCCC(=O)Nc1cccc(-c2nc3ncccc3o2)c1,2.8,10694,-19,0,1,2,-9
CC(C)[C@H](NC(=O)OCc1ccccc1)C(=O)OCC(=O)N1C(C)CCCC1C (stereo partly drawn),2.3,4256,-9,.,6,9,8
Clc1ccc(Br)cc1-c1nc(-c2ccncc2)no1,9.4,4458,-44,-1,0,2,-10
COc1ccc(-c2cc(C(=O)N(C)Cc3ccccc3F)c3ccccc3n2)cc1OC,3.0,5731,5,-5,6,5,3
S=c1[nH]ncn1/N=C/c1cccs1,.,4700,2,0,.,.,.
CCCS(=O)(=O)c1c(S(=O)(=O)CCC)c2c(N)cccn2c1C(=O)c1ccc(OC)cc1,-3.6,2232,7,6,-6,4,-6
Cn1cccc1CC(=O)NN=Cc1ccc([N+](=O)[O-])cc1,0.2,.,.,.,1,4,3

# Some entries already given, limited to BJeLR lethal, ugtP null kill and Mtb hypoxia rep growth.
canonical_smiles	BJeLR lethal	ugtP null kill	Mtb hypoxia rep growth
CC(C)[C@H](NC(=O)OCc1ccccc1)C(=O)OCC(=O)N1C(C)CCCC1C (stereo partly drawn)	.	8	9
CCCS(=O)(=O)c1c(S(=O)(=O)CCC)c2c(N)cccn2c1C(=O)c1ccc(OC)cc1	6	-6	4
